gsp antag = qHTS for Antagonists of gsp, the Etiologic Mutation Responsible for Fibrous Dysplasia/McCune-Albright Syndrome: qHTS; gsp-mutant cells, cAMP HTRF, 30 min; control for the full effect not named in the record; Potency, µM (doses to about 76.9 µM), for the others: at the top dose activity change, negative = inhibition, actives largely listed as inhibitors; 340,000 tested, 0.4% active; AID 624288, 2012; active = falling curve of any shape with a large fitted effect; inconclusive = falling curve, mostly with a smaller effect; inactive = flat or rising curve; cell line not stated here;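 also: intracellular cAMP measured with PDE inhibitor Ro 20-1724 present during compound exposure; potency is read from the fitted curve at half-maximal effect; % is scaled to controls: 0 for no effect and ±100 for the full control effect; nearly all actives have a fitted effect of over 65% in size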
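HTRF cAMP measurement after 30 min RT detection following 30 min, 37C compound treatment alongside […] (added as 300 uM solution) in G418-selected cells seeded at 2000/well and grown 16–24 h.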
gsp agonist = qHTS for Agonist of gsp, the Etiologic Mutation Responsible for Fibrous Dysplasia/McCune-Albright Syndrome: qHTS; gsp mutant cells, cAMP HTRF, 30 min; control for the full effect not named in the record; AID 624287, 2012; Potency, µM (titrated, usually from 76.9 µM), for the others: at the top dose activation (cAMP increase), most hits filed as activators; 340,000 tested, 0.13% active; active = well fitted activation curve with a large enough effect; inconclusive = small, poorly fitted or top-dose-only effect, or another doubt; inactive = no such curve, though single readings can be large or run the other way; cell line not stated here;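 also: phosphodiesterase inhibitor Ro 20-1724 added with compounds to block cAMP breakdown; potency is read from the fitted curve at half-maximal effect; nearly all actives have a fitted effect of over 60% in size; about a fifth of the inactives were tested at one dose only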
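Cells in DMEM/10% FBS with G418 were pretreated with compounds in DMSO plus […] (300 uM stock) for 30 min at 37C. cAMP was measured by HTRF (cAMP-d2 plus anti-cAMP antibody-K) after 30 min at room temperature.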
Menin MLL FP FL = qHTS Assay for Inhibitors Targeting the Menin-MLL Interaction in MLL Related Leukemias: Competition With Fluorescein Labeled MLL-derived Peptide | Fluorescence polarization, fluorescein-MLL peptide displacement from menin | FP activity change, % at 61.4 µM | 290,000 tested, under 10 active; inconclusive = falling polarisation curve, or a change in total fluorescence; inactive = total fluorescence flat and polarisation flat or rising; no compound was filed as active; the % refers to the polarisation; negative = inhibition;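 also: % of control where 0% means no effect; inhibitors lower the polarisation; unlabelled MLL peptide was the positive control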
D2 agonist = Beta-Arrestin HTS for Positive Allosteric Modulators of the Human D2 Dopamine Receptor: Agonists; 360,000 tested, 0.084% active; AID 624465, 2012; DiscoveRx PathHunter D2 beta-arrestin, luminescence, 90 min; 100% = 57 uM dopamine signal; activation, % (concentration not given with the values); D(2) dopamine receptor (Homo sapiens), P14416; in the data active = activation above about 40%; inconclusive = about 15% to 40%; inactive = below about 15%; also: compound concentration not given in the record; the text of the record calls up to 30% inactive
Target sequence (P14416 whole entry, looked up): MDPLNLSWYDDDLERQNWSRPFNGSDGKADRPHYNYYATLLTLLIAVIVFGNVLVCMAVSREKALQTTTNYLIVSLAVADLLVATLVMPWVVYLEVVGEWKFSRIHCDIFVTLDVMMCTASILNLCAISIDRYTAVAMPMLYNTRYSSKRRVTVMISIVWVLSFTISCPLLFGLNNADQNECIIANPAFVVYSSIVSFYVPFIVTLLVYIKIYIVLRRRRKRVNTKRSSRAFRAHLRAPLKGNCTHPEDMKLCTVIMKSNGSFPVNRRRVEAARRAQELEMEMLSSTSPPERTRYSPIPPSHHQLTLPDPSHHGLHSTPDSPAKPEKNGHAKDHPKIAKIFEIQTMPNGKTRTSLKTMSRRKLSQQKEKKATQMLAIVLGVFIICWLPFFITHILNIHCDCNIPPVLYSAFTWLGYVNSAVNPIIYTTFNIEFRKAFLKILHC
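DiscoveRx PathHunter D2 beta-arrestin cells (2,100/well) attached overnight, then compound-stimulated 90 min at 37 C in HBSS/10 mM HEPES/0.1% Tween-20 buffer; beta-galactosidase complementation read by luminescence after 1 h at ambient temperature. Dopamine 57 uM final (EC100) as control.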
ClpP mod = qHTS Assay for Activators of ClpP; 340,000 tested, 1.9% active; purified B. subtilis ClpP, FRET peptide cleavage, 20 min; ATP-dependent Clp protease proteolytic subunit (Bacillus subtilis (strain 168)), P80244; Potency, µM (series often up to 57.5 µM), for the others: top-dose activity change, negative = active; active = well fitted falling curve with a large enough effect; inconclusive = small, poorly fitted or top-dose-only effect; inactive = no such curve, though single readings can be large or run the other way; also: potency is read from the fitted curve at half-maximal effect; the source files actives as falling curves though it sought activators and does not explain the sign; nearly all actives have a fitted effect of over 65% in size; many hits overshoot -100%
Target sequence (P80244 whole entry, looked up): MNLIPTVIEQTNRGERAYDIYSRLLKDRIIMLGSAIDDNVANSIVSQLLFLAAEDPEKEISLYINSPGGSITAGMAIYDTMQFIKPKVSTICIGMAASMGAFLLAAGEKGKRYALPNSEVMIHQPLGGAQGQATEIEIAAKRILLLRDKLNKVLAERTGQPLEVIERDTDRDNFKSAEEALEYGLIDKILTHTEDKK
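ClpP 10 microg/mL final, pH 8 Tris/KCl buffer with BSA, glycerol, Tween-20; compound pinned in; FRET-FV substrate; RT 20 min; Ex320/Em430; ΔFRET vs ADEP 5.8 microM, DMSO, no enzyme.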
Sfp PPTase inh = qHTS Assay for Inhibitors of Bacillus subtilis Sfp phosphopantetheinyl transferase (PPTase). AID 1490, 2009. 310,000 tested, 3.5% active. 4'-phosphopantetheinyl transferase ffp (Bacillus subtilis), Q9F4F7. Potency, µM, for the others: max response, negative = inhibition, most hits filed as inhibitors. Biochemical Sfp PPTase activity, qHTS; active = well fitted inhibition curve with a large enough effect; inconclusive = small, poorly fitted or top-dose-only effect, or another doubt; inactive = no such curve, though single readings can be large or run the other way;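 also: the enzyme is Sfp with the accession as filed and its product quenches rhodamine fluorescence; potency is read from the fitted curve at half-maximal effect; 0% = enzyme reaction without inhibitor and -100% = no enzyme wells; top concentration of the series not given in the record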
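Fluorescence-quenching assay: 15 nM Sfp-PPTase preincubated 15 min at room temperature with compound, then 5 uM rhodamine-CoA and 12.5 uM BHQ-2-labelled YbbR peptide added. Fluorescence (ex 525/em 598 nm) read at start and after 30 min; difference gives rate.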
PINK1 modulator = A Quantitative High throughput Screen to Identify Chemical Modulators of PINK1 Expression | 410,000 tested, 0.2% active | PINK1 immunofluorescence, high-content cytometry, 24 h | AID 624263, 2012 | Potency, µM (titrated, usually from 76.6 µM), for inactives: at the top dose activation (PINK1 increase), most hits filed as activators; active = well fitted activation curve with a large enough effect; inconclusive = small, poorly fitted or top-dose-only effect; inactive = flat fitted curve, though single readings scatter; cell line not stated here;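 also: potency is read from the fitted curve at half-maximal effect; % of control where 0% means no effect; nearly all actives have a fitted effect of over 65% in size; a mitochondrial uncoupler was the plate control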
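PINK1 protein level read as immunofluorescence by microplate cytometer in a fixed, stained stable cell line after 24 h exposure to five compound concentrations, with CCCP as control.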
Starred values were filed as active, the others as inactive; ? = inconclusive; · = not tested or not shown; & = joins results of further samples; [ ] = another dose, or the depositor's remark. Rows were taken by chance; 5.1% or so of the library scored in one or more.

SMILES	gsp antag	gsp agonist	Menin MLL FP FL	D2 agonist	ClpP mod	Sfp PPTase inh	PINK1 modulator
Cc1ccccc1Nc1nn2c(=O)c3ccccc3nc2s1	9%	2%	1.4	-1.2	21%	11%	1.0%
CN(C)c1ccc(C(=O)N/N=C/c2ccccn2)cc1	-5%	2%	-0.7	-14	-0.9%	?	0.8%
CN(C)C(=O)c1nc2ccc(Cl)cn2c1CN1CCN(c2ncccn2)CC1	-2%	11%	-4.8	-28	-0.8%	17%	-0.3%
O=C(NNC(=O)c1ccc(Cl)cc1Cl)c1ccncc1	0%	8%	2.3	-1.4	-2.9%	16%	1.1%
COC(=O)C1=CN(Cc2cccs2)C=C(C(=O)OC)C1c1cccc(OC)c1OC	3%	-24%	-1.7	4.5	32µM*	17%	·
OCCCn1c(C2CCCN2c2nc(-c3ccc(F)cc3)cs2)nc2cc(Cl)c(Cl)cc21 (stereo unspecified)	-8%	-28%	·	1.6	-0.9%	·	3.2%
Cc1ccc(C)c(S(=O)(=O)N2CCN(C(=O)Cc3c(F)cccc3Cl)CC2)c1	-14%	-2%	·	-3.9	-1.1%	·	-2.1%
O=C(O)c1ccc(OCc2occc2C(=O)O)cc1	-1%	8%	-0.7	-2.8	0.4%	11%	1.0%
CC(OC(=O)Cn1cnc2c1c(=O)n(C)c(=O)n2C)C(=O)c1ccccc1 (stereo unspecified)	0%	27%[15.4 µM]	·	1.4	·	·	2.8%
CC(=O)N1Cc2ccccc2CC1C(=O)O (stereo unspecified)	-5%	0%	4.9	-2.2	-0.7%	6%	-0.6%
CC(=O)c1ccc(C(=O)NC2CCCN(Cc3ccccc3F)C2)cc1 (stereo unspecified)	6%	-26%	3.8	0.0	1.5%	-1%	1.1%
O=C(NCc1ccccn1)Nc1cccc(Cl)c1Cl	4%	-3%	·	3.5	-0.5%	14%	-1.3%
O=C(OCC(=O)N1CCCC1)c1cc(=O)c2ccccc2o1	-16%	6%	·	-2.5	5.2%	·	0.9%
CCN(CC)S(=O)(=O)c1ccc(Cl)c(NC(=O)COc2ccccc2[N+](=O)[O-])c1	2%	26%	2.1	-2.4	-4.6%	-9%	17%
COc1cccc(C(=O)NC2CC3CCCC(C2)N3S(=O)(=O)c2ccccc2)c1 (stereo unspecified)	-17%	6%[15.4 µM]	0.8	-0.4	·	10%	1.2%
O=C(Nc1cc(C(F)(F)F)ccc1Cl)C(NCc1ccccc1)c1ccccc1 (stereo unspecified)	-12%	25%	3.4	2.5	-2.8%	7%	?
COCC(C)OC(=O)/C(C#N)=C\c1coc2ccc(C)cc2c1=O (stereo unspecified)	6%	17%	·	-3.0	135%	-17%	17%
Cc1cc(=O)[nH]c(N/N=C/c2ccc(-c3ccc(F)cc3)o2)n1	-7%	-5%[15.4 µM]	0.7	-3.8	·	?	-0.7%
CCN(C(=O)Cn1nc(C)n2c(cc3cc(C)ccc32)c1=O)c1ccccc1	-13%	21%	0.5	-2.0	3.9%	2%	-0.2%
COc1ccccc1CNC(=O)COC(=O)c1ccc(Cl)nc1	-1%	-17%	·	0.1	-1.9%	·	-1.3%
COc1cc2c(C#CCCO)c(-c3ccsc3)oc(=O)c2cc1OC	0%	-2%	·	3.0	4.3%	·	0.1%
CCOc1ccc(N=Cc2ccccc2O)cc1	-13%	-126%[inhibitor]	·	0.5	1.9%	·	-0.6%
COc1ccc(CNC(=O)c2c(F)c(F)c(F)c(F)c2F)cc1	-2%	9%	3.3	1.1	0.8%	-10%	0.2%
COc1ccc(CC(=O)N/N=C(\C)c2cccs2)cc1OC	9%	0%	·	-2.2	-0.2%	-1%	-1.4%
COc1ccccc1NC=C1C(=O)OC2(CCCCC2)OC1=O	-16%	26%	-0.6	-3.3	-2.9%	-1%	-4.7%[38.3 µM]
Next records
SMILES	gsp antag	gsp agonist	Menin MLL FP FL	D2 agonist	ClpP mod	Sfp PPTase inh	PINK1 modulator
Cc1nn(Cc2c(F)c(F)c(F)c(F)c2F)c(C)c1NC(=O)c1c([N+](=O)[O-])c(C)nn1C	-13%	-1%	7.0	-1.1	-1.9%	-2%	-5.7%[38.3 µM]
CC(C)CCCC(C)NS(=O)(=O)Cc1ccccc1 (stereo unspecified)	-1%	-1%	7.2	-0.9	1.0%	5%	·
O=C(NCCc1ccccc1)C1CCN(S(=O)(=O)N2CCCCC2)CC1	7%	-89%[inhibitor]	-1.4	3.4	-0.5%	2%	-0.5%
N#C/C(=C\c1ccc(O)c(O)c1)C(=O)Nc1ccccc1	-22%	·	?	3.8	-0.1%&-0.1%	-17%	4.3%&-0.1%
CCOc1ccc(CCNC(=O)COC(=O)CSc2ccccc2C)cc1OCC	-13%	-27%	·	-1.6	5.4%	-5%	6.1%
COc1ccc(CCNC(=O)CSc2nnc(CNC(=O)c3c(F)cccc3Cl)o2)cc1OC	7%	2%	·	1.2	-0.9%	13%	-1.0%
COc1cc(-c2cc(C(=O)Nc3c(Cl)cc(Cl)cc3Cl)c3ccccc3n2)cc(OC)c1OC	1%	?	5.3	-5.1	?	3%	7.9%
[O-][n+]1c2ccc3nonc3c2nn1-c1ccccc1Cl	-9%	?	-0.7	-0.2	-8.2%	10%	-1.4%
COc1cc2cc(-c3ccc(O)cc3O)nc(C)c2cc1OC	-11%	-6%[15.4 µM]	1.1	3.2	·	-11%	3.5%
O=C(Cn1cnc2ccccc21)Nc1cccc([N+](=O)[O-])c1	-7%	-8%	0.5	2.7	-1.1%	-6%	0.0%
COCCCNC(=O)C(Cc1ccccc1)NS(=O)(=O)c1ccc2c(c1)c(=O)n(C)c(=O)n2C (stereo unspecified)	10%	-5%	4.2	-2.4	-2.7%	1%	3.8%
CN(C(=O)COC(=O)Cn1cnc2c1c(=O)n(C)c(=O)n2C)C1(C#N)CCCCC1	10%	28µM*	·	-2.7	-0.7%	·	2.8%
Cc1ccc(S(=O)(=O)N(C)C)cc1NC(=O)C(C)OC(=O)c1ccc2c(c1)OCCO2 (stereo unspecified)	0%	-10%[15.4 µM]	-2.1	-3.0	·	9%	-1.0%
O=C(Nc1cccnc1Cl)c1noc2c1CCc1ccccc1-2	7%	1%	2.9	0.0	-1.2%	10%	7.1%
CC(=O)c1c(C)[nH]c(C(=O)COC(=O)COc2ccccc2)c1C	1%	-30%[inhibitor]	·	-3.9	1.2%	·	2.5%
COc1ccc(C(=O)N/N=C/c2ccc(OC)c(CN3CCCc4ccccc43)c2)cc1	-3%	-2%[15.4 µM]	3.2	-2.1	-1.4%	-15%	2.3%
Cc1cc(C)c2c(n1)SCC(=O)N2CC(=O)Nc1ccc(C)c(C)c1	-4%	6%	0.4	-0.1	2.0%&1.2%	10%	3.0%&-0.2%
CSc1ccc(/C=N/NC(=O)c2ccc3nc[nH]c3c2)cc1	·	14%	·	-0.1	?	·	9.9%
CC(C)N(C)c1ncnc2c1ncn2[C@H]1CN(Cc2ccncc2)C[C@@H](CO)O1	·	·	·	6.8	0.6%	·	2.5%
Cc1ccc(-n2nnnc2-c2ccco2)cc1	-6%	3%[15.4 µM]	-4.2	-2.0	0.8%	11%	0.0%
O=C(N/N=C/C=C\c1ccc([N+](=O)[O-])cc1)c1cccnc1	0%	-7%	0.1	-1.7	·	12%	-1.0%
CCOc1ccc(C(C)=O)cc1COC(=O)C1=COCCO1	-4%	-50%[inhibitor]	2.2	-2.0	0.7%	-3%	0.2%
CCOc1ccccc1-c1cc(C(=O)N/N=C/c2cccnc2)c2ccccc2n1	-15%	?	·	3.9	·	·	1.9%
NC1=NC[C@H](Cc2ccc(O)cc2)N1CCc1cc(C(F)(F)F)cc(C(F)(F)F)c1	8%	·	3.5	-0.3	2.2%	4%	0.8%
C[C@H](O)[C@@H]1CN2CCc3c([nH]c4ccccc34)[C@@H]2C[C@@H]1N(C)C(=O)c1ccco1	·	·	·	14	-16%	·	5.7%
Next results follow:
SMILES	gsp antag	gsp agonist	Menin MLL FP FL	D2 agonist	ClpP mod	Sfp PPTase inh	PINK1 modulator
CCOC(=O)c1ccc(NC(=O)CSc2nnc(-c3cccs3)n2C)cc1	14%	-97%[inhibitor]	-4.8	-0.2	?	7%	3.1%
O=C(Nc1ccccc1O)c1cc(S(=O)(=O)N2CCOCC2)c(Cl)cc1Cl	?	-1%	5.2	-0.8	-3.2%	6%	6.4%[38.3 µM]
COCCNC(=O)C(=O)N/N=C/c1ccccc1C(F)(F)F	4%	-7%	3.4	-2.1	-0.6%	23%	-0.3%
CCOc1ccc(/C=N/NC(=O)Cc2cccs2)cc1	5%	-1%[15.4 µM]	4.6	-3.0	·	14%	-0.7%
CCC(Sc1nc2ncccc2[nH]1)C(=O)NC1CCC(C)CC1 (stereo unspecified)	2%	14%	-1.3	-0.7	-1.5%	14%	0.0%
CCCCCCc1cc2cc(S(=O)(=O)c3ccc(C)cc3)c(=O)oc2cc1O	-23%	-1%	9.1	5.5	4.7%	10%	?
CCc1ccc(OCC(=O)NCCN(C)C)c(Br)c1	7%	1%	-0.9	-0.4	-2.4%	0%	-1.3%
O=[N+]([O-])c1ccc2[nH]c(O)c(N=NC(=S)Nc3cccnc3)c2c1	-15%	?	-0.8	-4.4	-2.0%	?	0.6%
CCOCCCN1CN(Cc2ccccc2)CNC1=S	4%	?	-0.7	-1.4	-2.7%	-10%	-2.0%
O=C(Cc1cn2ccsc2n1)NCCc1ccc(F)cc1	3%	-3%	4.1	0.6	-2.0%	-4%	0.1%
Cc1ccc2nc(-c3cccc(N)c3)oc2c1	1%	1%	-0.1	-0.9	14µM*	-1%	-1.8%[38.3 µM]
CC(C)=NNC(=O)C1=NNC(=O)C1	4%	6%	-2.2	-3.9	1.4%	1%	0.9%

Bioassay records: PubChem, National Center for Advancing Translational Sciences (NCATS)
